Screening results as filed in PubChem.
AID923 = qHTS Assay for Allosteric/Competitive Inhibitors of Caspase-1: Spectroscopic Profiling in AFC Spectral Region; 75,000 compounds, 1.1% hits; Potency, µM (series often up to 57.5 µM), without a hit: at the top dose fluorescence increase, hits mostly activators; compound fluorescence, AFC spectral region (405/520 nm); almost no hit is shown here; active = well fitted activation curve with a large enough effect; inconclusive = small, poorly fitted or top-dose-only effect;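 note: potency is the fitted concentration of half-maximal effect; 0% is about no effect; scaled to a free AFC standard on each plate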
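Baseline compound fluorescence (AFC region, 405 nm ex/520 nm em) taken from the intercept of kinetic reads with 50 nM caspase-1 and 5 uM Ac-WEHD-AFC; normalized to an on-plate AFC standard curve; compounds titrated up to 57 uM.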
A647 fluor = qHTS Assay for Spectroscopic Profiling in A647 Spectral Region; Compound fluorescence, A647 channel (570/671 nm), Tris buffer; max dye-equivalent concentration, M; 59,000 tested, under 10 active; AID 592, 2007; active means above 1 µM dye equivalent; inconclusive means 0.1 to 1 µM; inactive means 0.1 µM or less;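 note: values scaled relative to a standard on each plate; highest value over a series up to 38 µM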
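Buffer was dispensed, compounds and Alexa 647 standards were pin-transferred, and plates sat 15 min at room temperature. Intensity at 570/671 nm was then converted to dye-equivalent concentration using the plate's A647 standard curve.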
A488 autofl = qHTS Assay for Spectroscopic Profiling in A488 Spectral Region; compound autofluorescence, A488 spectral region, dye equivalency; hits give high values; max dye equivalency, M; 59,000 compounds, 0.1% hits; AID 591, 2007; active = above 10 nM dye equivalent; inconclusive = 1 to 10 nM; inactive = 1 nM or less; about half of its hits are not listed in these tables;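 note: highest value over a series up to 38 µM; compound alone in buffer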
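Intrinsic compound fluorescence is measured in 100 mM Tris buffer at pH 8.0 following 15 min incubation at room temperature. Intensities at 480 nm excitation/540 nm emission are calibrated to an on-plate A488 concentration series, giving dye-equivalent concentrations.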
TSHR ag = qHTS Assay for Agonists of the Thyroid Stimulating Hormone Receptor; 73,000 compounds, 0.48% hits; Potency, µM (titrated, usually from 57.1 µM), inactives show at the highest dose activation, hits mostly activators; HEK293-CNG-TSHR cells (CNG channel as cAMP sensor), membrane potential dye, cAMP; active = well fitted activation curve of enough size with the parental cells flat; inconclusive = any curve in the parental cells; inactive = parental cells flat and receptor cells flat or falling; note: potency is the fitted concentration of half-maximal effect; % of control where 0% means no effect; weak receptor curves with flat parental cells got no call and are not listed
Target sequence (P16473 whole entry, looked up): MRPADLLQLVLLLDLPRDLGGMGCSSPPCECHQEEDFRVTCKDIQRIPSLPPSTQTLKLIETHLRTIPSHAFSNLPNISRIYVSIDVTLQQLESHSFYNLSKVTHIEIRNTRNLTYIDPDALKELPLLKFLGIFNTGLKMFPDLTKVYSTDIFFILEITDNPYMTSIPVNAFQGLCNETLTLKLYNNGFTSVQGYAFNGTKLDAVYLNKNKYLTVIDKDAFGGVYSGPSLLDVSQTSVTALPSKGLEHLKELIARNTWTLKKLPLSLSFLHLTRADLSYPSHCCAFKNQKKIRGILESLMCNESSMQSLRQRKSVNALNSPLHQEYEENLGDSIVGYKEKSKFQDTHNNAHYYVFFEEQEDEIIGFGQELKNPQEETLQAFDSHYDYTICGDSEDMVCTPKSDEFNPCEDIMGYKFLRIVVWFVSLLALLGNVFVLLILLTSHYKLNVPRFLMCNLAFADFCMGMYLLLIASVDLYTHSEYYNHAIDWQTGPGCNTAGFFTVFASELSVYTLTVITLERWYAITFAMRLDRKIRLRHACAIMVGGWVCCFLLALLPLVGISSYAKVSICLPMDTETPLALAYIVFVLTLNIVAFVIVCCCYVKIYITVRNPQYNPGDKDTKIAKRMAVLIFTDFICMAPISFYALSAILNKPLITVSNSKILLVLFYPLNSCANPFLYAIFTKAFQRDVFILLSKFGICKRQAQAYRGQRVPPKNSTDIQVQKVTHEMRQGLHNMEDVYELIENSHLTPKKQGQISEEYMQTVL
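HEK 293 cells stably expressing TSHR and a modified CNG channel, with CNG-only parental cells as counterscreen, were preloaded 60 min at room temperature with membrane potential dye containing 100 uM RO 20-1724. Compound exposure was 30 min, and depolarization was read as fluorescence at 590 nm.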
Resorufin autofl = qHTS Assay for Spectroscopic Profiling in Resorufin Spectral Region. Compound fluorescence, resorufin region 547/598 nm, buffer; hits give high values. max dye-equivalent concentration, M. 59,000 compounds, 0.04% hits; active = above 10 nM dye equivalent; inconclusive = 1 to 10 nM; inactive = 1 nM or less; a few of its hits are not listed in these tables; note: highest value over a series up to 38 µM
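Tris 100 mM pH 8.0; compound added, 15 min RT; CCD imager read, ex 547 nm/em 598 nm; signal normalized to resorufin standard curve (six concentrations per plate) as dye-equivalent concentration.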
An asterisk follows results filed as active; i = inactive; ? = inconclusive; / = no result given; & = joins results of further samples; [ ] = another dose, or the depositor's remark. Not all compounds are listed; rates above refer to the full screens.

Values in the order: AID923 | A647 fluor | A488 autofl | TSHR ag | Resorufin autofl
C=CCOc1nc(-c2ccncc2)nc2ccccc12
→ / | 2.1e-09 | i | / | i
Cc1cccc(N2CCN(CCNC(=O)c3cc4c(s3)CS(=O)(=O)C4)CC2)c1C
→ 3.2% | 1e-09 | i | 10%[11.4 µM] | i
O=S(=O)(NCc1ccco1)N1CCCCCC1
→ 1.5% | 1.5e-08 | i | 6% | i
CN1C(=O)C2(OCC(COc3ccc(Cl)cc3)O2)c2ccccc21 (stereo not drawn)
→ 0.4% | 6.9e-09 | i | 6% | i
Cc1cc(NC(c2cccnc2)c2ccc3cccnc3c2O)no1 (stereo not drawn)
→ -1.6% | 1.6e-08 | i | -2% | i
Cc1nn(-c2ccccc2)c2sc(C(=O)N3CCCCC3)cc12
→ -0.5% | 2.6e-08 | i | 28% | i
Cc1ccc2[nH]c(=O)c(CN(C)C(=O)c3ccccn3)cc2c1
→ 0.9% | 7.3e-09 | i | 12% | i
C=C(C)COc1ccc(-c2n[nH]c(C)c2-c2ccccc2OC)c(O)c1
→ -1.0% | 2.7e-08 | i | 32µM* | i
CCOC(=O)N1CCC(Nc2c(NCCN3CCN(c4cccc(Cl)c4)CC3)c(=O)c2=O)CC1
→ 1.4% | / | / | -3% | /
COc1ccc(C(=O)OCC(=O)c2cc(OC)ccc2OC)c(OC)c1
→ -0.7% | 2.7e-08 | i | 15% | i

(more compounds)
Values in the order: AID923 | A647 fluor | A488 autofl | TSHR ag | Resorufin autofl
COc1ccccc1CNC(=O)c1ccc(S(=O)(=O)N2CCCC2)cc1
→ -0.4% | 1.8e-09 | i | -6% | i
CCC(CC)C(=O)Nc1c2c(nn1-c1ccc(OC)cc1)CS(=O)(=O)C2
→ -0.5% | 1e-09 | i | ? | i
[N-]=[N+]=CC(=O)COC(=O)c1ccccc1
→ 10%[11.5 µM] | 4.4e-08 | i | 4%[11.4 µM] | i
COc1ccccc1N1CCN(c2ccc(-c3ccccc3)nn2)CC1
→ -2.3% | 4e-08 | i | ? | i
Cc1cc(C)cc(N)c1
→ 0.7% | / | / | ? | /
CS/C(=N\S(=O)(=O)c1cccs1)NC(=O)CSc1nc2ccccc2s1
→ -2.3% | 1.5e-08 | i | 6% | i
Cc1c(NC(=O)c2c(F)cccc2F)c(=O)n(-c2ccccc2)n1C
→ 1.2% | 2.5e-08 | i | -4%[11.4 µM] | i
O=C(COC(=O)C1=COCCO1)Nc1ccccc1Oc1ccccc1
→ 0.4% | 2.7e-08 | i | 10% | i
Cc1ccc(S(=O)(=O)Nc2cc(C)nn2-c2ccccc2)cc1
→ -0.5% | 1.9e-08 | i | -6% | i
O=C(Nc1ccccc1)N1CC2(CCN(S(=O)(=O)c3ccccc3)CC2)C1
→ -0.7% | 1e-09 | i | -6% | i

New compounds follow:
Values in the order: AID923 | A647 fluor | A488 autofl | TSHR ag | Resorufin autofl
CC1=C(C(=O)NCCN2CCOCC2)C2(CCC(C)CC2)OC1=O (stereo not drawn)
→ 1.3% | / | / | 3% | /
O=C(Cn1ncc2c1-c1ccccc1OC2)N(Cc1ccco1)C1CCCCC1
→ -1.0% | / | / | ? | /
CCc1nnc(NC(=O)c2ccc(N(C)S(=O)(=O)c3ccccc3)cc2)s1
→ 2.6% | 8.5e-09 | i | ? | i
Cc1ccc(-c2c3c(=O)n(C)c(=O)n(C)c3cn2Cc2cccnc2)cc1
→ -0.5% | 8.2e-09 | i | 12% | i
Nn1c(SCC(=O)NC2CCCCC2)nnc1-c1ccccc1
→ 1.2% | 1.4e-09 | i | -1% | i
COc1ccc(C/C(O)=C(\C#N)c2nc3ccccc3s2)cc1
→ -1.1% | 2.3e-08 | i | ? | i
Cc1cccc(OCC(=O)Nc2ccc(S(=O)(=O)N3CCCC3)cc2)c1
→ 0.8% | / | / | 8% | /
O=C(Nc1ccc(S(=O)(=O)N2CCOCC2)cc1)c1ccco1
→ -0.7% | 3.5e-08 | i | ? | i
COc1ccc(CNc2ncnc3ccc(-c4cccc(NS(C)(=O)=O)c4)cc23)c(OC)c1
→ 0.5% | 1e-09 | i | 19% | i
COC(=O)N1[C@H](Cc2ccccc2)C=C[C@]1(C)C(=O)NCc1ccc(N(C)C)cc1
→ -2.2% | / | / | ? | /

Following part.
Values in the order: AID923 | A647 fluor | A488 autofl | TSHR ag | Resorufin autofl
COc1ccc2[nH]c(=O)c3c(c2c1)OC(C)(C)C=C3
→ 8.0% | 2.5e-09&2.8e-09 | i | 14% | i
FC(F)C(F)(F)C1=CC(c2ccccc2)=NCCN1
→ 2.8% | / | / | 7% | /
Cn1c(=O)c2[nH]c(SCc3ccccn3)nc2n(C)c1=S
→ 7.2%[11.5 µM] | 2.5e-08 | i | 1%[11.4 µM] | i
Cc1nc(/C=[N+](\[O-])C(C)(C)/C=N/O)n(O)c1C
→ -0.9% | 1.1e-08 | i | -1% | i
C/C(=C\c1ccccc1)CN1CCN(c2ccccc2)CC1
→ -0.2% | / | / | ? | /
COc1ccc(OC2C=CC(c3ccccc3)OC2CO)cc1 (stereo not drawn)
→ 1.7%[11.5 µM] | / | / | 2%[11.4 µM] | /
O=C(c1cccc(F)c1)N1CCC2(CC1)CN(c1ncccn1)C2
→ 0.1% | 1.2e-09 | i | / | i
Cc1nc2cnc(N(C)C)nc2n(C[C@H]2CCCO2)c1=O
→ ? | 1e-09 | i | ? | i
COc1cc(NC(=O)c2ccc3c(=O)n(Cc4ccco4)c(=S)[nH]c3c2)cc(OC)c1OC
→ 0.7% | 7e-09 | i | -8% | i
CCOC(=O)c1c(-c2ccc(C)cc2C)csc1NC(=O)CSc1nnnn1C
→ 0.9% | 6.8e-09 | i | 11% | i

The list goes on.
Values in the order: AID923 | A647 fluor | A488 autofl | TSHR ag | Resorufin autofl
COc1cc(S(C)=O)ccc1-c1nc2ncccc2[nH]1 (stereo not drawn)
→ -0.5% | 1e-09 | i | -8%[25.6 µM] | i
O=C(CN(Cc1ccc2c(c1)OCO2)C(=O)CSc1nc2ccccc2o1)NC1CCCCC1
→ -0.1% | 1e-09 | i | ? | i
CCSc1nc(-c2ccco2)ccc1C#N
→ 0.1% | 1e-09 | i | / | i
CCc1ccc(NC(=O)CS(=O)CC(=O)NC(C)CCc2ccco2)cc1 (stereo not drawn)
→ 1.1% | 1.7e-09 | i | -2% | i
COc1ccc2[nH]cc(CCNc3ncnc4ccc(-c5c(C)noc5C)cc34)c2c1
→ -0.1% | 2.4e-09 | i | ? | i
Cn1c(=O)[nH]c(=O)c2c1nc(N1CCNCC1)n2CCOc1ccccc1
→ -1.6% | 1e-09 | i | 3% | i
Cc1noc(C)c1C(=O)N1CCC2(CCN(Cc3ccccc3)CC2)CC1
→ 2.4% | 5.8e-09 | i | -4% | i
O=C(O)c1ccccc1NS(=O)(=O)c1ccc(Cl)c(Cl)c1
→ 2.4% | / | / | -2% | /
COc1ccc(N2C(=O)CC(N3CCN(c4ccc(S(=O)(=O)N5CCCC5)cc4)CC3)C2=O)cc1 (stereo not drawn)
→ -1.2% | 1.2e-08 | i | -9% | i
O=C(NCc1ccc(F)cc1)c1noc2c1CCCC2
→ 1.5% | 2.3e-08 | i | 19% | i

(continued)
Values in the order: AID923 | A647 fluor | A488 autofl | TSHR ag | Resorufin autofl
CCC(C)(C)NC(=O)CN(C(=O)c1snc(C(N)=O)c1N)c1ccc2c(c1)OCO2
→ 0.8% | 4.8e-09 | i | ? | i
O=C(NCCc1ccccn1)C1CC(=O)N(Cc2ccccc2Cl)C1 (stereo not drawn)
→ -0.1% | 1.7e-08 | i | 24%[11.4 µM] | i
Cc1ccc(S(=O)(=O)CCc2nc3ccccc3n2CCC#N)cc1
→ -0.5% | / | / | ? | /
CC1CCCN(C(=O)CSc2nnc(-c3ccc(S(=O)(=O)N4CCOCC4)cc3)n2C)C1 (stereo not drawn)
→ 1.3% | 1.5e-08 | i | 4% | i
CCOc1ccc(-c2cc(C(=O)N3CCN(C)CC3)c3ccccc3n2)cc1
→ -0.1% | 4.9e-08 | i | 10% | i
COCc1cc(=O)[nH]c(Nc2nc(C)c3ccc(C)cc3n2)n1
→ 0.5% | 1.4e-08 | i | 3% | i
CCOC(=O)c1c(C)nc2sccn12
→ 2.6% | 5.4e-09 | i | 3% | i
Cc1cc(NC(=O)c2ccc(Cl)cc2)no1
→ 0.6% | 1e-09 | i | ? | i
O=C(CCN1CCN(c2ccccc2)CC1)Nc1nccs1
→ 3.3% | 1.3e-08 | i | ? | i
O=C(Cc1cccs1)N1CCN(c2ccccn2)CC1
→ 3.1% | / | / | -2% | /

Next part.
Values in the order: AID923 | A647 fluor | A488 autofl | TSHR ag | Resorufin autofl
Cn1c(C(=O)NC2CC2)cc2c(=O)n(C)c3ccccc3c21
→ -2.1% | / | / | ? | /
CCOC(=O)Cc1cnc(NC(=O)NC(C(=O)OCC)(c2ccccc2)C(F)(F)F)s1 (stereo not drawn)
→ -1.9% | 5.8e-08 | i | 19% | i
CCOc1ccc(NC(=O)C(C)Sc2nnnn2C)cc1 (stereo not drawn)
→ 0.5% | 4.5e-08 | i | -1% | i
CCOC(=O)CCCNC(=O)CN1C(=O)NC(CCc2ccccc2)C1=O (stereo not drawn)
→ -2.4% | 6.4e-09 | i | 6% | i
Cc1noc(C)c1C(=O)OC(C(=O)NC1CCCC1)c1ccc(F)cc1 (stereo not drawn)
→ 0.4% | 1.4e-08 | i | ? | i
CCCN(CCC)C(=O)Cn1c(=O)n(CCCCC(=O)NCc2ccco2)c(=O)c2ccccc21
→ -1.2% | 1e-09 | i | 21%[11.4 µM] | i
Cc1ccnn2c(-c3ccccc3)c3c(=O)n(C)c(=O)n(C)c3c12
→ 0.2% | 9.5e-09 | i | 1% | i
CC(C)COc1ccc(C(=O)OCCN2CCOCC2)c(O)c1
→ / | 1e-09 | i | / | i
COc1ccc(S(=O)(=O)N2CCCCCC2)cc1C(=O)OCC(=O)NC(N)=O
→ -0.5% | 5e-09 | i | 5% | i
CC1CN(Cc2nc3c(c(=O)n(C)c(=O)n3C)n2CCc2ccccc2)CC(C)O1 (stereo not drawn)
→ 0.1% | 4.1e-08 | i | 16% | i

(continued)
Values in the order: AID923 | A647 fluor | A488 autofl | TSHR ag | Resorufin autofl
COCCCNC(=O)CCNS(=O)(=O)c1ccc(C)cc1
→ -1.2% | 1.5e-09 | i | -3% | i
OC(CNCCc1ccc(Cl)cc1)COCc1ccco1 (stereo not drawn)
→ 0.9% | 1e-09 | i | 5% | i
Cn1c(=O)[nH]c(=O)c2c1ncn2CCCc1ccccc1
→ 0.8% | 1e-09 | i | 0% | i
O=C(c1cccc(N2C(=O)C3CC=CCC3C2=O)c1)N1CCCCCC1 (stereo not drawn)
→ 2.0% | 1e-09 | i | 1%[11.4 µM] | i
COc1ccc(OC)c(-c2nnc(NC(=O)C(C)Sc3nncn3C)s2)c1 (stereo not drawn)
→ -1.7% | / | / | ? | /
Cc1oc(/N=C/c2c(O)ccc3ccccc23)c(C#N)c1C
→ 11% | / | / | ? | /
O=C(O)C1[C@H]2C(=O)N(Cc3cccs3)C[C@]23C=C[C@H]1O3 (stereo partly drawn)
→ / | 8.2e-09 | i | / | i
CCCNC(=O)CCC(=O)Nc1ncc(-c2ccc(C)cc2)n1C
→ -3.2% | 2.2e-08 | i | -3% | i
c1cc2cn[nH]c2cc1NC1CCCCCC1
→ -0.8% | / | / | -3% | /
CCCc1noc2c1/C(=N\O)CC(CC(C)SCC)C2 (stereo not drawn)
→ -1.2% | / | / | 25µM* | /
COc1ccc(OC)c(NC(=O)c2[nH]c(C)c(C(C)=O)c2C)c1
→ 1.4% | 1e-09 | i | 5% | i
CCOC(=O)C1=C(N)Oc2cc(C)[nH]c(=O)c2C1c1ccncc1 (stereo not drawn)
→ -2.2% | 4.5e-09 | i | ? | i
